MgrA-DNA mod = S. aureus MgrA activity modulators, primary screen, biochemical, S. aureus Newman, fluorescence polarization; MgrA-DNA binding; inhibition, %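 (about 10 µg/mL by stock and volumes)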; actives 0.13% (n = 84,000); AID 602314, 2012;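 active = above 50% in either of two replicates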;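 note: 0% = protein plus DNA without compound and 100% = DNA alone without protein; higher means less MgrA bound to DNA so lower polarization; one replicate is shown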
S aureus helic = inhibitors of S. aureus replicative helicase, primary screen, biochemical, fluorescence unwinding readout; replicative DNA helicase (DnaC/DnaB), Staphylococcus aureus; purified S. aureus helicase, fluorescence unwinding assay; about half of the hits fall short of the stated cut; inhibition, %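 (tested at about 80 µM)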; actives 0.05% (n = 120,000);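 active = both duplicates at 50% or more, or one of them with a favoured structure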;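 note: 0% = mean of negative control wells and 100% = mean of positive control wells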
An asterisk follows results filed as active; & = joins results of further samples.

CS(=O)(=O)N1N=C(c2ccccc2)CC1c1ccccc1 (stereo not drawn) was read as MgrA-DNA mod -1.4 and S aureus helic 6.
O=C(OC1COC(c2ccc(Br)cc2)OC1)c1ccc(Br)cc1 (stereo not drawn) was read as MgrA-DNA mod 0.8 and S aureus helic 10.
C=CCNC(=O)c1ccc(OCC=C)cc1 was read as MgrA-DNA mod 0.4 and S aureus helic 12.
COCCNC(=O)Cn1cc(/C=C(\C#N)C(N)=O)c2ccccc21 was read as MgrA-DNA mod -0.2 and S aureus helic -2.
Screening CC1=C(C(=O)OC(C)(C)C)C(c2cccc(Cl)c2)NC(=O)N1 (stereo not drawn) returned MgrA-DNA mod -0.2 and S aureus helic 9.
For O=C(NCc1ccccc1)c1ccc(CSCc2cccc(Cl)c2)o1 the results were MgrA-DNA mod 1.8 and S aureus helic 2.
CN(CC1COc2ccccc2O1)C(=O)c1cc(=O)[nH]c2ccccc12 (stereo not drawn) was read as S aureus helic 3.
`CC(O)c1nc2ccccc2n1CC(=O)N(c1ccccc1)C(C)C` (stereo not drawn) gave S aureus helic -14.
For CCOC(CN(c1ccc(F)cc1)S(=O)(=O)c1cc(Cl)cc(Cl)c1)OCC the results were MgrA-DNA mod -1.0.
Screening O=C(NC(=O)c1c(F)cccc1Cl)Nc1ccccc1Oc1ccc(Cl)cc1Cl returned MgrA-DNA mod -0.6.
O=C(NCCSC1=NCCN1)c1cccnc1Oc1ccccc1 was read as MgrA-DNA mod -2.0.
Cc1ccc2c(c1)c(=O)c(C(=O)O)cn2C was read as MgrA-DNA mod 1.2 and S aureus helic 6.
Screening COc1ccc(NC(=O)/C(C#N)=C/c2ccc3c(c2)n(C)c(=O)n3C)cc1 returned S aureus helic -12.
`CN(C)C(CNC(=O)c1ccc(S(=O)(=O)N2CCCc3ccccc32)cc1)c1ccco1` (stereo not drawn) gave S aureus helic 2.
O=C(c1cc2ccccc2oc1=O)N1CCSC1c1cccc(Cl)c1 (stereo not drawn) was read as S aureus helic 11.
For NC(=O)CSc1nc(-c2ccccc2)cs1 the results were S aureus helic -9.
`COc1ccc2nc3sc(C(=O)O)cc3cc2c1` gave MgrA-DNA mod -2.6 and S aureus helic 11.
CCC(C)C(NC(N)=O)C(=O)Nc1cccc(Cl)c1 (stereo not drawn) was read as S aureus helic 8.
For CCOc1ccc(C(=O)NC2CC2)cc1 the results were S aureus helic 11.
For COC(=O)c1c(COC(=O)c2ccc(NC(=O)c3ccco3)cc2)nc2ccccc2c1C the results were S aureus helic -2.
`C=C1c2ccccc2C(=O)N1c1ccc(C(F)(F)F)cc1` gave MgrA-DNA mod -1.1.
O=C(O)CN1C(=O)CC(Cc2ccccc2)C1=O (stereo not drawn) was read as MgrA-DNA mod -2.1 and S aureus helic 2.
For O=C(Cc1cccs1)Nc1nnc(Cc2ccccc2)s1 the results were MgrA-DNA mod 5.2 and S aureus helic -1.
For CC(C)(C)NC(=O)NC(=O)c1c(F)cccc1Cl the results were MgrA-DNA mod 1.9.

For convenience, 2 of the compounds above:
For O=C(Cc1cccs1)Nc1nnc(Cc2ccccc2)s1 the results were MgrA-DNA mod 5.2 and S aureus helic -1.
For CC(C)(C)NC(=O)NC(=O)c1c(F)cccc1Cl the results were MgrA-DNA mod 1.9.

More results.
O=C(N/N=C/c1cc2c3c(c1O)CCCN3CCC2)c1ccncc1 was read as S aureus helic -125.
Screening COc1ccc(S(=O)(=O)Nc2ccccc2C(=O)NCc2ccco2)cc1OC returned MgrA-DNA mod -4.4 and S aureus helic 8.
CCC(c1ccc(O)cc1)C(CC)c1ccc(O)cc1 (stereo not drawn) was read as MgrA-DNA mod 1.0&1.4.
CCCn1cnc2ccccc21 was read as MgrA-DNA mod 0.8 and S aureus helic 3.
Screening CCS(=O)(=O)Nc1ccccc1-c1ccccc1 returned MgrA-DNA mod -1.2 and S aureus helic 5.
`Cc1ccc(C)c(N=C2SCCCN2C(=O)c2ccc(C#N)cc2)c1` gave S aureus helic 8.
For COC(=O)c1c(CSc2nnc(-c3cc(OC)c(OC)c(OC)c3)o2)nc2ccccc2c1C the results were S aureus helic 4.
Screening NNC(=O)Cn1ccc(C(F)(F)F)n1 returned S aureus helic -19.
`COc1ccc(-c2nc(C#N)c(N3CCC(C(N)=O)CC3)o2)cc1` gave S aureus helic 16.
`CCc1ccc(N=Cc2c(O)n(-c3ccccc3)c(=O)c3ccccc23)cc1` gave MgrA-DNA mod 1.2 and S aureus helic -2.
COc1ccc(C2C(C(=O)c3ccccc3)C(=O)CC(C)(O)C2C(=O)c2ccccc2)cc1 (stereo not drawn) was read as S aureus helic 0.
`COc1ccc(-c2ncc3ccccn23)cc1` gave S aureus helic -2.

Grouped by structure, the entries above with fluorine
For CCOC(CN(c1ccc(F)cc1)S(=O)(=O)c1cc(Cl)cc(Cl)c1)OCC the results were MgrA-DNA mod -1.0.
Screening O=C(NC(=O)c1c(F)cccc1Cl)Nc1ccccc1Oc1ccc(Cl)cc1Cl returned MgrA-DNA mod -0.6.
`C=C1c2ccccc2C(=O)N1c1ccc(C(F)(F)F)cc1` gave MgrA-DNA mod -1.1.
For CC(C)(C)NC(=O)NC(=O)c1c(F)cccc1Cl the results were MgrA-DNA mod 1.9.
Screening NNC(=O)Cn1ccc(C(F)(F)F)n1 returned S aureus helic -19.

The list continues.
Cn1c(=O)n(C)c2cc(S(=O)(=O)NC3CCCCC3)ccc21 was read as MgrA-DNA mod 0.8 and S aureus helic 10.
`COc1cccc(C(=O)N2CCC(C(=O)N3CCOCC3)CC2)c1` gave MgrA-DNA mod -2.0 and S aureus helic -11.
Screening CCOCCOC(=O)C1=C(C)NC2=C(C(=O)CC(c3ccccc3)C2)C1c1ccc(Br)cc1 (stereo not drawn) returned MgrA-DNA mod -1.9.
For CC(CC(=O)Oc1ccc(C#N)cc1)S(=O)(=O)c1ccc(Cl)cc1 (stereo not drawn) the results were MgrA-DNA mod 4.8.
O=S(=O)(c1ccc(NCC2CCCO2)nc1)N1CCC(Cc2ccccc2)CC1 (stereo not drawn) was read as S aureus helic 16.
For CCN(C(=O)CSc1nnc(Cn2nnc3ccccc32)o1)c1nc(-c2ccccc2)cs1 the results were MgrA-DNA mod -1.1 and S aureus helic 9.
Screening Fc1ccccc1N1CCN(Cc2cn[nH]c2-c2ccc(Cl)cc2)CC1 returned S aureus helic -27.
`CSc1nn2c(C(F)(F)F)cc(C(F)(F)F)nc2c1C(N)=O` gave MgrA-DNA mod -1.6.
`CCC(=O)/C=C\c1nnc2cc3c(cc2c1-c1ccc(CC)o1)OCCO3` gave S aureus helic -24.
`N#Cc1c(N)nc(SCC(=O)c2ccc(Br)cc2)c(C#N)c1-c1ccccc1` gave MgrA-DNA mod -2.0.
Screening CCS(=O)(=O)NCc1ccc2[nH]c3c(c2c1)CCCC3 returned S aureus helic 13.
For CCC(CC)c1nnc(NC(=O)C2COc3ccccc3O2)s1 (stereo not drawn) the results were S aureus helic 23.
`O=C(Nc1nc(-c2cccs2)cs1)c1ccc(S(=O)(=O)N2CCOCC2)cc1` gave S aureus helic 6.
For COc1cc(C(=O)NN2C(=O)CSC2=S)cc(OC)c1OC the results were S aureus helic -7.
For O=C(N=Nc1c(O)[nH]c2ccc(Br)cc12)N=Nc1c(O)[nH]c2ccc(Br)cc12 the results were MgrA-DNA mod 2.1.
Cc1ccc(-n2ncc(N(C)n3cccc3)c(Cl)c2=O)cc1 was read as MgrA-DNA mod 1.1.
`CN1CCc2c(sc(NC(=O)c3ccco3)c2C(N)=O)C1` gave S aureus helic 10.
Cn1nnc2cc(C(=O)NCc3ccco3)ccc21 was read as MgrA-DNA mod 3.8 and S aureus helic 3.
O=C(COc1ccccc1)NS(=O)(=O)c1ccc(N=NN2CCOCC2)cc1 was read as MgrA-DNA mod -2.7 and S aureus helic -2.
`Cc1ccc(CN)cc1F` gave S aureus helic -11.
CN(C)S(=O)(=O)N1CCC(C(=O)O)(c2ccccc2)CC1 was read as MgrA-DNA mod 1.6 and S aureus helic 13.
For O=C(NC1CCCC1)c1cc2c(s1)CS(=O)(=O)C2 the results were MgrA-DNA mod -0.9 and S aureus helic 6.
O=C(O)c1ccccc1C(=O)NCc1ccc(N2CCCC2=O)cc1 was read as MgrA-DNA mod -0.7 and S aureus helic 1.
CC(C)OC(=O)Cn1c(C(=O)OC(C)C)cc2c1ccn2C was read as MgrA-DNA mod 1.8 and S aureus helic 3.
`O=C(Oc1ccc(Cl)cc1Cl)c1cccnc1SCCS(=O)(=O)c1ccccc1` gave MgrA-DNA mod -0.7.
For COc1cccc(NC(=O)c2ccc3c(SCC(=O)O)c4c(nc3c2)CCCC4)c1 the results were MgrA-DNA mod -0.9 and S aureus helic 5.
For COC(=O)c1sccc1OCc1ccccc1 the results were MgrA-DNA mod -0.9.
`CSc1nnc(-c2cc3ccccc3cc2O)n1C` gave MgrA-DNA mod 0.9 and S aureus helic 10.
`Nn1c(CSc2nc3ccccc3o2)nnc1CSc1nc2ccccc2o1` gave MgrA-DNA mod -2.8 and S aureus helic -1.
CCC(c1ccccc1)c1nn2c(-c3cccnc3)nnc2s1 (stereo not drawn) was read as MgrA-DNA mod 3.2 and S aureus helic 10.
For CSC1=C(C#N)C(=O)NC(c2ccc(Cl)cc2)S1 (stereo not drawn) the results were MgrA-DNA mod 1.5.
Screening CCCc1ccc(OCC(=O)NC2CCCC2)cc1 returned S aureus helic 0.
`COC1CCC(C(=O)Nc2nc(-c3ccc4c(c3)CCN4S(C)(=O)=O)cs2)CC1` (stereo not drawn) gave MgrA-DNA mod -0.8 and S aureus helic 3.
CN1C2CC[C@@H]1CC(OC(=O)[C@H](CO)c1ccccc1)C2 (stereo partly drawn) was read as MgrA-DNA mod 0.5.
Screening CCN(CC)CC1OCc2ccccc2CO1 returned S aureus helic 4.
For O=C(O)C1C2C=CC(C2)C1C(=O)NCC1CCCCC1 (stereo not drawn) the results were MgrA-DNA mod 1.9 and S aureus helic -18.
`CC(C)NC(=O)N1CCc2sccc2C1c1ccc(Cl)cc1` (stereo not drawn) gave MgrA-DNA mod -2.3.
Clc1ccc(SCc2nnc(-c3ccc(Cl)cc3)o2)cc1 was read as S aureus helic 2.
Screening COc1ccccc1N1CCN(CC(C)Nc2ccccn2)CC1 (stereo not drawn) returned MgrA-DNA mod 0.9.
Cc1nc(-c2ccc(-c3cccs3)s2)sc1-c1ccnn1C(=O)C(C)(C)C was read as MgrA-DNA mod 0.8.
`C/C(=N\O)c1sc2ccccc2c1C` gave MgrA-DNA mod 0.6.
O=C(O)CSCC(=O)N1Cc2ccccc2CC1C(=O)O (stereo not drawn) was read as S aureus helic -8.
Screening Cc1c2cnn(CC(=O)NC3CC3)c(=O)c2c(C)n1Cc1ccccc1 returned S aureus helic -14.
O=C(CCCn1nc(-c2ccccc2)c2cc(Cl)ccc21)Nc1ccc(F)cc1 was read as MgrA-DNA mod 9.9 and S aureus helic 7.
Nc1c(C(=O)c2ccc(Cl)cc2)oc2ccccc12 was read as MgrA-DNA mod -2.1.
`Cc1cc(OCC(=O)Nc2nnn(C)n2)ccc1Cl` gave MgrA-DNA mod 4.0 and S aureus helic 16.
Screening Cc1cccc(N2CCN(CCNC(=O)Cn3ncc4c5ccccc5n(C)c4c3=O)CC2)c1C returned S aureus helic -4.
For O=c1[nH]nc(CSc2ccc(Cl)cc2)c2ccccc12 the results were MgrA-DNA mod 0.8.

Compounds shown so far containing a cyano group:
COCCNC(=O)Cn1cc(/C=C(\C#N)C(N)=O)c2ccccc21 was read as MgrA-DNA mod -0.2 and S aureus helic -2.
Screening COc1ccc(NC(=O)/C(C#N)=C/c2ccc3c(c2)n(C)c(=O)n3C)cc1 returned S aureus helic -12.
`Cc1ccc(C)c(N=C2SCCCN2C(=O)c2ccc(C#N)cc2)c1` gave S aureus helic 8.
`COc1ccc(-c2nc(C#N)c(N3CCC(C(N)=O)CC3)o2)cc1` gave S aureus helic 16.
For CC(CC(=O)Oc1ccc(C#N)cc1)S(=O)(=O)c1ccc(Cl)cc1 (stereo not drawn) the results were MgrA-DNA mod 4.8.
`N#Cc1c(N)nc(SCC(=O)c2ccc(Br)cc2)c(C#N)c1-c1ccccc1` gave MgrA-DNA mod -2.0.
For CSC1=C(C#N)C(=O)NC(c2ccc(Cl)cc2)S1 (stereo not drawn) the results were MgrA-DNA mod 1.5.

The results go on.
For O=C(CN1CCc2ccccc21)Nc1cccc(F)c1 the results were S aureus helic -10.
Screening CN(C)CCCN1C(=O)C2C3C=CC(C3)C2C1=O (stereo not drawn) returned MgrA-DNA mod 0.8 and S aureus helic 10.
Screening Cc1cc(C)n(C(=O)Cc2cn3ccsc3n2)n1 returned MgrA-DNA mod 0.0 and S aureus helic 3.
For COc1ccccc1C1CCN(C(=O)c2scc(S(=O)(=O)c3ccc(Cl)cc3)c2C)CC1 the results were MgrA-DNA mod -0.4.
`COc1ccc(Cl)cc1NC(=O)c1sc(=S)n(C)c1N` gave S aureus helic 16.
`CC1(C)CC(=O)C(=CN2CCCCC2)C(=O)C1` gave MgrA-DNA mod -7.7 and S aureus helic 11.
CC(=O)N1c2ccccc2C(=O)C1N(C)c1ccc(C)cc1 (stereo not drawn) was read as S aureus helic 18.
For CN(Cc1ccccc1)C(=O)COc1ccc(S(=O)(=O)N2CCCC2)cc1 the results were MgrA-DNA mod -0.5 and S aureus helic 1.
CC(C)[C@@H]1CC[C@@H](C)C[C@@H]1OC(=O)C(O)C(O)C(=O)O[C@H]1C[C@H](C)CC[C@H]1C(C)C (stereo partly drawn) was read as MgrA-DNA mod -1.0 and S aureus helic 11.
`Cc1ccc(C)n1-c1ccc(S(N)(=O)=O)cc1` gave MgrA-DNA mod 1.0.
For COc1ccc2c(c1)c(=O)oc1cc(O)ccc12 the results were MgrA-DNA mod 1.4 and S aureus helic 7.
For COc1ccccc1C/C(N)=N/O the results were S aureus helic 6.
`C=CCSC1=N/C(=C\c2ccsc2)C(=O)S1` gave MgrA-DNA mod 1.8 and S aureus helic 7.

A portion of the library, so the mix of outcomes need not match the whole.
